Ecoli growth: E. coli growth inhibition; Escherichia coli growth, OD600, 23 h; stronger effect = lower value; OD600 absorbance (test concentration not listed); 330,000 compounds, 0.21% hits;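 active means OD600 absorbance below the run mean of sample wells minus 3.6 SD, in any replicate, cut at about 0.56 in these data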;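 further: stock transfer was 300 nL into about 60 µL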
ALR inh: human ALR oxidase inhibition via reduced H2O2 | purified ALR, DTT oxidation, H2O2 HRP-luminol luminescence | P55789 | inhibition, % (no concentration beside the values) | 290,000 compounds, 3.8% hits;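 active means mean and each replicate at 75% or more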;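 further: stock transfer was 7.5 nL into about 7.5 µL; 0% = neutral wells and 100% = wells with inactivated enzyme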
FGF22 binding: binders of recombinant human FGF22 by thermal shift | Q9HCT0 | SYPRO orange fluorescence; percent of sucrose octasulfate shift, DMSO zero | calls only at 9.99 µM | 340,000 compounds, 1.5% hits | AID 651658;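 active means melting point raised past a set limit in the mean and every replicate; three in four hits are not shown here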
Target sequence (Q9HCT0 whole entry, looked up): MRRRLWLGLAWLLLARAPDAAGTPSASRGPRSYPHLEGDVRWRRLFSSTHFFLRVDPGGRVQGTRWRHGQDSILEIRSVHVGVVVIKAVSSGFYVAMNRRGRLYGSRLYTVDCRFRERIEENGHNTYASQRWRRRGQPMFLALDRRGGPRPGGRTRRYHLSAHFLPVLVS
HNF4A DNA FP: change in binding of human HNF4 alpha to DNA; AID 1224865; P41235; HNF4a-FITC DNA binding, fluorescence polarization, 1 h; 360,000 compounds, 0.3% hits; activity change, % at 10 µM; in the data active means activity change above about 30%, passing the limit was not always enough;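 further: controls were the assay level and a saturating level of protein; the project sought stronger binding though the title names inhibitors; some compounds called inactive have numbers as strong as hits; positive values seem to mean higher polarization but the record does not say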
Target sequence (P41235 whole entry, looked up): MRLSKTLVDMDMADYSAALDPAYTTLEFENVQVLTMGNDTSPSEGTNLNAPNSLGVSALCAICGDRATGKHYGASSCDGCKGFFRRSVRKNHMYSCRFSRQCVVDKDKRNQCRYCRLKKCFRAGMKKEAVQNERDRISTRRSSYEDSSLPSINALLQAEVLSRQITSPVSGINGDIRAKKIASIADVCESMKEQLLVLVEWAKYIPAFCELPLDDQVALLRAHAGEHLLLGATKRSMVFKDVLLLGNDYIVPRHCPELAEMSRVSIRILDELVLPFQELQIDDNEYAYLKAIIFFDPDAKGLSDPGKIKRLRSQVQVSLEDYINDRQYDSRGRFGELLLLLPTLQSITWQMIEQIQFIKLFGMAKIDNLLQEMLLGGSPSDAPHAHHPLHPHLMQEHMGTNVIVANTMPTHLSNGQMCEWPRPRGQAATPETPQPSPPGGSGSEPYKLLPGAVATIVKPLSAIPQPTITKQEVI
UCH37 inh: inhibitors of human deubiquitinating enzyme UCH37; inhibition, % (test concentration not listed); 330,000 compounds, 0.33% hits; AID 588478; purified proteasome/UCH37, Ub-AMC cleavage fluorescence;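 active means mean of two replicates above 20%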;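 further: 0% = compound-free wells with enzyme and 100% = wells lacking proteasome; stock transfer was 100 nL into about 20 µL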
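system = Proteasome-associated human UCH37 deubiquitinase | amount = 0.15 nM proteasome as dispensed | medium = pH 7.4 Tris-HCl (50 mM) with ovalbumin, ATP-MgCl2, DTT | incubation = 30 min preincubation with enzyme, 25 min cleavage at room temperature | detection = AMC fluorescence 355/460 nm | read-out basis = percent inhibition | controls = no-proteasome and no-compound wells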
B2AR ag: human beta-2 adrenergic receptor agonism by FAP; P07550; Am2.2-beta2AR cells, FAP receptor internalization, flow cytometry; reference of the scale not given here; response, % (test concentration not listed); 340,000 compounds, 0.43% hits; AID 504454;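 active means response above a set limit, near 3 SD of response in nonfluorescent compounds, cut at about 42% in these data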;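 further: stock transfer was 100 nL into about 11 µL; a reference agonist was the positive control; negative values mostly stem from fluorescent compounds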
Target sequence (P07550 whole entry, looked up): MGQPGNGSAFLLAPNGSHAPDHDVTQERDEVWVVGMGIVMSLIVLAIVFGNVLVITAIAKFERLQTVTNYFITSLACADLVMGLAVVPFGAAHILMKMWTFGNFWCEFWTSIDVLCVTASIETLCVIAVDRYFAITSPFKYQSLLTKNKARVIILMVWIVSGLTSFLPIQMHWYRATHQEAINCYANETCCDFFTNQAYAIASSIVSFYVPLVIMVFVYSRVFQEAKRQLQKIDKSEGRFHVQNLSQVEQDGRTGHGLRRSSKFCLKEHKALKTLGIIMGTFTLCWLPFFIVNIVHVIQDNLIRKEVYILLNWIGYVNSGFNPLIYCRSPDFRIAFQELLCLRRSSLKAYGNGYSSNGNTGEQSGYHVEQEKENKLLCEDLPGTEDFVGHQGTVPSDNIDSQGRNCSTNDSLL
Ecoli rRNA inh: inhibitors of bacterial rRNA selective over humanized ribosomes; 350,000 compounds, 1.6% hits; GFP signal change (wild-type ribosome), % (concentration not given with the values); E. coli WT GFP vs humanized-ribosome RFP mutants, fluorescence, 24 h; stronger effect = lower value; DMSO median 0, no signal -100;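 active means significant combined selectivity score with lowered wild-type GFP, culture density cut under 30%, mutant RFP and density less affected; inactive means any of these conditions unmet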; further: one replicate is shown; some compounds called inactive have numbers as strong as hits
Ecoli rRNA inh OD600: further read-out of Ecoli rRNA inh, marked with its call; OD600 change, %; measured here: OD600 growth;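 optical density of the mix in the first replicate; 0 = DMSO median and -100 = no signal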
Ecoli rRNA inh RFP: recorded beside Ecoli rRNA inh, whose call it bears; RFP signal change, %; measured here: RFP humanized mutant strains;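 first replicate; 0 = DMSO median and -100 = no signal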
Numbers without * were called inactive; i = inactive; . = not tested or not shown. A portion of the library; the hit share may differ from the screen's.

cpd	Compound	FGF22 binding	B2AR ag	Ecoli rRNA inh OD600	UCH37 inh	Ecoli rRNA inh RFP	Ecoli rRNA inh	ALR inh	HNF4A DNA FP	Ecoli growth
1	CCOC(=O)C1=C(N)OC(C)=C(C#N)C1c1ccco1 (stereo not drawn)	i	-7	6	3.6	5.3	5	-10	-1.5	0.71
2	Cc1c(OCC(=O)NCCCN2CCCC2=O)ccc2c3c(c(=O)oc12)CCC3	i	-6	-7	-24	1.4	-7	-3	2.2	0.68
3	COc1ccc(CNC(=O)COC(=O)c2ccc3ccccc3n2)cc1	i	5	.	1.3	.	.	.	-3.8	0.69
4	COC(=O)CCC(C)C1CCC2C3C(OC(C)=O)CC4CC(O)CCC4(C)C3CC(O)C12C (stereo not drawn)	i	.	-76	.	-13	-47	.	-3.8	.
5	O=C(CCc1nc2ccccc2c(=O)[nH]1)NNC(=O)c1cccc(Cl)c1	i	-2	14	0.4	2.4	12	-11	4.8	0.69
6	COc1ccc(/C=N/NC(=O)C2C(C=C(Cl)Cl)C2(C)C)c(OC)c1 (stereo not drawn)	i	7	-4	.	2.0	-3	0	-0.9	.
7	CCN(CC)C(=O)C1CCCN(C(=O)Nc2ccc(NC(=O)N3CCCC(C(=O)N(CC)CC)C3)cc2)C1 (stereo not drawn)	.	1	.	3.2	.	.	6	3.1	0.72
8	Cc1ncc(S(=O)(=O)c2ccc(Cl)cc2)c(N)n1	i	-8	.	3.7	.	.	-2	-2.0	0.66
9	CC(=O)N1c2c(cc(Br)cc2S(=O)(=O)NCc2ccc3c(c2)OCO3)CC1C (stereo not drawn)	.	1	.	1.9	.	.	.	0.7	0.76
10	CCOc1cc(Br)c(C=O)cc1OCC	i	15	6	1.8	-2.2	8	-4	2.8	0.65
11	Cc1csc2c(SCC(=O)NNC(=O)C(Cl)Cl)ncnc12	i	-3	0	2.6	0.4	0	13	-3.4	0.62
12	Oc1ccc(Cl)cc1C=NCCc1ccccc1	i	0	2	-0.3	-2.4	8	-1	-2.4	0.58
13	O=C(CSc1ncnc2c1oc1ccccc12)NCc1ccco1	.	-12	.	2.4	.	.	7	3.1	0.7
14	O=C(O)c1cccc(S(=O)(=O)Nc2ccccc2Cc2ccccc2)c1	i	21	-6	1.9	1.4	-5	6	-0.7	0.64
15	COC1CCCCC1Nc1ccc(C)c(C)c1 (stereo not drawn)	.	4	0	5.1	-7.1	6	24	-1.7	0.66
16	Cc1nc(NCCCN2CCOCC2)c2cnn(-c3ccccc3)c2n1	i	-1	-1	-1.0	1.7	-3	.	0.1	0.71
17	CCOC(=O)/C(C#N)=C/c1cc2ccccc2nc1N1CCCCC1	i	-24	-5	4.5	-1.9	4	39	17	0.67
18	CCOc1cc(/C=N/NC(=O)c2cc(C)n(-c3ccc(F)cc3)c2C)ccc1O	i	5	13	.	-5.6	3	49	-1.9	.
19	CC1CCN(Cc2c(C(=O)N/N=C/c3ccccc3O)nnn2-c2nonc2N)CC1	i	-9	7	.	-1.7	3	.	1.9	.
20	Cc1cc(NC(=O)c2cccc(S(=O)(=O)N3CCCC3)c2)no1	.	-4	.	1.4	.	.	2	0.5	0.64
21	CC1(C)c2[nH]c3ccccc3c2C[C@@H]2C(=O)N(Cc3ccc(F)cc3)C(=O)N21	i	-1	-54	3.2	5.2	-16	-5	-7.7	.
22	CNC(=S)NNC(=O)c1cccn(Cc2ccccc2)c1=O	i	-1	4	2.8	-0.4	11	8	-2.5	0.69
23	O=C(O)CCc1ccc(-c2ccc(Cl)cc2)n1CCC(=O)O	.	7	-8	-1.0	0.3	6	32	-3.3	0.66
24	Fc1nc(F)c(F)c(NCCCNc2c(F)c(F)nc(F)c2F)c1F	i	10	-53	4.7	-2.4	-32	-3	2.3	0.65
25	Cc1cccc(C(=O)Nc2cccnc2Cl)c1	i	-2	0	.	-3.9	-7	1	4.9	.
26	O=C(COc1ccc2oc(-c3ccccc3)cc(=O)c2c1)Nc1ccccc1	.	0	.	-2.5	.	.	-3	-3.4	0.74
27	Cc1nn(Cc2ccc(F)cc2)c(C)c1NC(=O)c1cccnc1Cl	.	6	.	2.6	.	.	-4	-5.7	0.68
28	Cc1cccc(C(=O)OCC(=O)NC(C)CCc2ccccc2)c1 (stereo not drawn)	i	3	5	0.5	11	-3	1	-1.2	0.68
29	CS(=O)(=O)c1ccc(Cl)c(NC(=O)COC(=O)C23CC4CC(CC(C4)C2)C3)c1	i	0	.	2.8	.	.	.	-0.7	0.67
30	N#CC1(P(=O)(c2ccccc2)c2ccccc2)CCCC1	i	-3	0	4.4	-3.2	-2	6	3.1	0.7

Compound profiles (already shown).
CCN(CC)C(=O)C1CCCN(C(=O)Nc2ccc(NC(=O)N3CCCC(C(=O)N(CC)CC)C3)cc2)C1 (stereo not drawn) across the screens: FGF22 binding: .; B2AR ag: 1; Ecoli rRNA inh OD600: .; UCH37 inh: 3.2; Ecoli rRNA inh RFP: .; Ecoli rRNA inh: .; ALR inh: 6; HNF4A DNA FP: 3.1; Ecoli growth: 0.72
O=C(COc1ccc2oc(-c3ccccc3)cc(=O)c2c1)Nc1ccccc1 across the screens: FGF22 binding: .; B2AR ag: 0; Ecoli rRNA inh OD600: .; UCH37 inh: -2.5; Ecoli rRNA inh RFP: .; Ecoli rRNA inh: .; ALR inh: -3; HNF4A DNA FP: -3.4; Ecoli growth: 0.74

(further entries)
cpd	Compound	FGF22 binding	B2AR ag	Ecoli rRNA inh OD600	UCH37 inh	Ecoli rRNA inh RFP	Ecoli rRNA inh	ALR inh	HNF4A DNA FP	Ecoli growth
31	S=C(NCc1ccc(Cl)cc1)Nc1ccc(Cl)cc1Cl	i	2	-9	4.8	-1.1	-17	.	-1.5	0.74
32	Cc1cc(C)nc(SCCCNCc2c(F)cccc2Cl)n1	i	-9	15	1.7	3.3	6	-14	0.9	0.69
33	FC(F)(F)c1ccc(/C=N/n2c(COc3ccccc3)n[nH]c2=S)cc1	i	8	6	.	0.3	8	.	0.2	.
34	Cc1c(-c2ccccc2)sc(N)c1C(=O)N1CCOCC1	.	-8	.	-18	.	.	99*	1.1	0.7
35	Cc1cccc(C)c1NC(=O)C(C)N1CCCC1 (stereo not drawn)	i	-2	11	4.9	-1.4	2	16	2.6	0.66
36	COc1ccc(N2C(=O)CSC2c2cccc(F)c2)c(OC)c1 (stereo not drawn)	.	-5	.	4.4	.	.	-3	-2.1	0.72
37	O=C(Cn1ccnc1[N+](=O)[O-])NCc1ccccc1	i	-2	2	3.3	52	24	0	0.1	0.62
38	COC(=O)c1ccccc1NC(=O)C1CC=CCC1C(=O)O (stereo not drawn)	.	9	.	-8.4	.	.	.	0.7	0.67
39	O=C(NNc1cccc(Cl)c1)c1cccnc1Oc1ccccc1	i	-4	-14	1.9	0.2	-12	15	3.4	0.64
40	CN(C)Cc1nnnn1-c1ccccc1	i	3	8	1.7	-1.4	2	0	-2.1	0.72
41	CCc1cc(=O)oc2c3c(cc(OCC(=O)NCc4ccccn4)c12)OC(C)(C)CC3	i	-5	.	i	.	.	-11	1.1	0.77
42	O=C(CN1C(=O)c2ccccc2S1(=O)=O)Nc1ncccn1	i	3	7	-0.1	-1.1	7	-12	-2.4	0.65
43	CN(C)CCCNC(=S)NCCNc1nc2cc3c(cc2cc1C#N)OCO3	i	4	-7	-82	0.1	5	1	-2.2	0.66
44	O=c1[nH]nc(Cc2ccc(Cl)cc2Cl)c2ccccc12	.	32	.	2.8	.	.	-8	-2.1	0.72
45	CN1CCN(C(=O)C2CCC(CNS(=O)(=O)c3cccc4cccnc34)CC2)CC1 (stereo not drawn)	i	5	11	3.5	-1.3	-4	12	-1.2	0.7
46	O=C(Nc1ccccn1)c1ccc(NC(=O)c2ccco2)cc1	.	0	.	5.3	.	.	1	0.4	0.69
47	COc1cc(CNc2ncnc3c2ncn3[C@H]2CN(Cc3cccc4ccccc34)C[C@@H](CO)O2)cc(OC)c1OC	i	.	4	.	2.7	8	.	-0.4	.
48	COc1ccc(NC(=O)C(C2CC2)n2c(=O)c(-c3ccco3)nc3ccccc32)cc1 (stereo not drawn)	i	.	-10	.	-0.8	-6	.	9.0	.
49	Nc1ccc(S(=O)(=O)NNC(=O)C(=O)NNc2ccccn2)cc1	.	23	0	4.9	-0.7	-8	99*	-3.4	.
50	CC(OC(=O)CNC(=O)c1sc2ccccc2c1Cl)C(=O)NC1(C#N)CCCCC1 (stereo not drawn)	i	8	-37	-2.0	-0.8	-26	-4	-2.6	0.7
51	O=C(CNC(=O)Cc1ccc(Cl)cc1)NCC(=O)N1CCCCC1	i	-4	8	2.2	-2.4	5	2	-5.5	0.67
52	Nc1ccc(S(=O)(=O)N2CCCc3ccccc32)cc1	i	6	-6	5.1	2.3	9	5	-0.3	0.74
53	O=[N+]([O-])c1ccc(N2CCN(c3ccc(O)cc3)CC2)cn1	i	1	3	11	-0.4	-1	.	3.0	0.63
54	COc1cc(CNCCO)cc(Br)c1OCc1cccs1	.	8	.	2.0	.	.	-6	2.5	0.67
55	CC1(C)CC(=O)N(CC(=O)O)c2ccccc2S1	.	11	.	0.3	.	.	-4	0.0	0.69
56	COc1cc(N2C(=O)CSC2=S)cc(OC)c1OC	i	12	15	-0.1	22	20	4	3.0	0.7
57	COc1ccc(/C=C2\CCOC2=O)cc1	.	6	.	3.6	.	.	-12	3.2	0.68
58	CN(CCO)C(=O)CCC(=O)Nc1ccc(S(N)(=O)=O)cc1	i	0	3	-0.7	-4.8	15	-19	3.1	0.67
59	CN1CCc2c(sc3c2C(=O)NC(c2ccccc2)N3)C1 (stereo not drawn)	.	-21	.	-22	.	.	-13	-0.8	0.7
60	O=C(Nc1ccc(N2CCCCCC2)cc1)c1cccc(S(=O)(=O)N2CCOCC2)c1	i	5	-1	5.7	-6.1	-3	19	0.5	0.69

The listing continues:
cpd	Compound	FGF22 binding	B2AR ag	Ecoli rRNA inh OD600	UCH37 inh	Ecoli rRNA inh RFP	Ecoli rRNA inh	ALR inh	HNF4A DNA FP	Ecoli growth
61	OCCC1CN(Cc2cccc3c2OCO3)CCN1C1CCCCC1 (stereo not drawn)	i	-1	8	0.3	-0.5	15	-6	0.6	0.68
62	CCOC(=O)Oc1ccc2c(=O)c(Oc3cc(C)cc(C)c3)coc2c1	.	3	.	-21	.	.	-8	5.1	0.66
63	CCC(=NCCc1ccc(OC)c(OC)c1)c1ccccc1O	i	7	13	2.4	0.4	9	-7	-0.5	0.67
64	NC(=O)C1(N2CCCCC2)CCN(C(=O)c2ccc(C#CC3(O)CCCCC3)cc2)CC1	.	1	.	5.7	.	.	.	2.0	0.76
65	CCN(CC)CCCNc1nc2cc(OC)c(OC)cc2c2nc(-c3ccccc3)nn12	.	15	.	-60	.	.	-12	-9.1	0.67
66	CC(C)(C)NC(=O)NC(=O)COC(=O)COc1ccc2c(c1)CCC2	.	-4	.	20*	.	.	-5	-3.5	0.69
67	COc1ccc(COc2ccc(S(=O)(=O)N3CCCC3)cc2C(N)=O)cc1F	i	4	-4	.	0.7	-6	-17	0.2	.
68	O=C(CCc1[nH]c2ccccc2c1Sc1ccccc1)NCCO	.	-8	.	2.2	.	.	99*	0.2	0.71
69	COC(=O)c1cnc2c(C(F)(F)F)cccc2c1OC	.	4	.	0.2	.	.	2	-1.3	0.72
70	O=C(COc1cccnc1[N+](=O)[O-])Nc1ncc(Cl)cc1Cl	i	14	8	3.6	2.0	-1	-13	-19	0.64
71	CC1CC(=O)N(CC(=O)Nc2cccc(F)c2)c2ccccc2S1(=O)=O (stereo not drawn)	i	-7	4	5.2	-2.7	4	-9	-2.1	0.69
72	COc1ccc(-c2nnc(SCC(=O)Nc3ccccc3OC)o2)cc1	i	-2	12	0.7	-12	4	-4	-1.1	0.66
73	Cc1c(Cl)ccc2c(C(=O)NC(C)c3ccncc3)cc(-c3ccncc3)nc12 (stereo not drawn)	.	.	.	0.0	.	.	1	.	0.67

Bioassay records as filed in PubChem.
